Compound activity as filed in PubChem.
OX1R antag-1: human HCRTR1 antagonism; O43613; CHO/OX1R cells, Fluo-8 calcium fluorescence, orexin A; inhibition, % at 5 µM; 330,000 tested, 0.43% active; AID 434989;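 active = inhibition above its plate's threshold, mean inhibition of all tested compounds on the plate plus 3 SD, cut at about 37% in these data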;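 also: 0% = orexin A challenge wells and 100% = SB-334867-A antagonist wells; not every result past the cut was called active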
Target sequence (O43613 whole entry, looked up): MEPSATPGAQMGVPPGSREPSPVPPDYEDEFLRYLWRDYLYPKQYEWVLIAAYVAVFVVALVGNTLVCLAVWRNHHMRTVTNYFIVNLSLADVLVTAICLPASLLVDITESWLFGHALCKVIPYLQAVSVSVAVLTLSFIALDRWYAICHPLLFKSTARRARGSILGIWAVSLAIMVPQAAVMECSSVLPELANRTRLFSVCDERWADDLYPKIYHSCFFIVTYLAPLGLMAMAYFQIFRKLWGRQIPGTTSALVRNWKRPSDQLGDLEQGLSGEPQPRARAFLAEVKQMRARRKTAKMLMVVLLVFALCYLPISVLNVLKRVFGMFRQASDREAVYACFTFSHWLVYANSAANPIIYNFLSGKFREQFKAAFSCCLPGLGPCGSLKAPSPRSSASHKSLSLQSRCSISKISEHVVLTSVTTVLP
OX1R antag-2: OX1R (human) antagonism; O43613; OX1R-expressing cells, FRET antagonist read-out; inhibition, % at 6.6 µM; 330,000 tested, 1.8% active; AID 485270; in the data active = inhibition mostly above about 38%, no sharp cut-off; inactive = mostly below about 40%;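 also: 0% = agonist challenge alone and 100% = reference antagonist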
Starred values were filed as active, the others as inactive. The list is partial, and most or all hits are left out here.

`O=C(O)c1cc(NC(=O)c2ccc(Cl)c([N+](=O)[O-])c2)cc(C(=O)O)c1` gave OX1R antag-1 -5 and OX1R antag-2 24.
Cc1cc(C(=O)NCCCN2CCCC2=O)cs1 was read as OX1R antag-1 0 and OX1R antag-2 2.
For Cc1ccc(CNC(=O)C(Cc2ccccc2)NS(=O)(=O)c2ccc(Br)s2)cc1 (stereo not given) the results were OX1R antag-1 -17 and OX1R antag-2 16.
`CCOC(=O)CSc1nc2ccccc2n2cnnc12` gave OX1R antag-1 -10 and OX1R antag-2 28.
COc1ccccc1CNC(=O)c1ccc(NS(=O)(=O)c2c(C)noc2C)cc1 was read as OX1R antag-1 -14 and OX1R antag-2 30.
Screening CCOc1ccc(CC(=O)OCN2C(=O)c3ccccc3C2=O)cc1 returned OX1R antag-1 -20 and OX1R antag-2 6.
COc1ccc(CN2CCNC(=O)C2CC(=O)N(C)Cc2ccncn2)c(OC)c1 (stereo not given) was read as OX1R antag-1 2 and OX1R antag-2 14.
O=C(NC1CCCCC1)c1cc(C2CC2)on1 was read as OX1R antag-1 12 and OX1R antag-2 5.
O=c1[nH]nc(-c2ccccc2)cc1-c1ccccc1 was read as OX1R antag-1 -12 and OX1R antag-2 15.
Screening O=C(N/N=C\c1ccccn1)C1COc2cc3ccccc3cc2O1 (stereo not given) returned OX1R antag-1 -8 and OX1R antag-2 7.
For CCCOC(=O)c1sc2nc3c(cc2c1N)C(=O)CCC3 the results were OX1R antag-1 -12 and OX1R antag-2 22.
Screening CCCCCCCCNC(=O)/C(C#N)=C/c1ccc2c(c1)OCCO2 returned OX1R antag-1 -16 and OX1R antag-2 8.
For CCOc1ccc(Cl)cc1S(=O)(=O)NCc1cccnc1 the results were OX1R antag-1 -16 and OX1R antag-2 3.
`O=C(c1ccc(Oc2ccccc2)cc1)C1CCCN(C(=O)c2cnccn2)C1` (stereo not given) gave OX1R antag-1 -20 and OX1R antag-2 22.
Screening Cc1ccn2c(c1)nc(=O)c1cc(S(=O)(=O)N3CCC(C)CC3)ccc12 returned OX1R antag-1 -10 and OX1R antag-2 -3.
Screening COc1ccccc1NC(=O)CN(c1ccccc1C)S(C)(=O)=O returned OX1R antag-1 -17 and OX1R antag-2 -3.
CCOC(=O)c1ccc(N=CC2=C(O)CC(C)(C)CC2=O)cc1 was read as OX1R antag-1 -4 and OX1R antag-2 23.
Cc1cccc(CN2CCN(Cc3ccc(-n4cccn4)cc3)CC2CCO)n1 (stereo not given) was read as OX1R antag-1 -22 and OX1R antag-2 2.
`CCC(=O)c1c[nH]c(C(=O)N2CCN(c3ccccc3)CC2)c1` gave OX1R antag-1 -9 and OX1R antag-2 17.
Screening c1ccc2c(N3CCCC3)nc(-c3ccncc3)nc2c1 returned OX1R antag-1 -13 and OX1R antag-2 36.
Screening O=C(/C=C/c1ccc2ccccc2n1)c1cc(Cl)ccc1O returned OX1R antag-1 -11 and OX1R antag-2 -2.
For O=C(NC(N1CCOCC1)C(Cl)(Cl)Cl)c1ccc(Br)cc1 (stereo not given) the results were OX1R antag-1 -16 and OX1R antag-2 26.
For Cc1cccc(NC(=O)C(=O)NCC2CCCN2S(=O)(=O)c2ccccc2)c1 (stereo not given) the results were OX1R antag-1 -24 and OX1R antag-2 8.
Screening CCc1ccc(NC(=O)Cn2ncn3c(cc4ccccc43)c2=O)cc1 returned OX1R antag-1 10 and OX1R antag-2 2.
For CC1(c2ccc3c(c2)OCO3)NC(=O)N(CC(=O)Nc2ccc(N3CCOCC3)cc2)C1=O (stereo not given) the results were OX1R antag-1 -11 and OX1R antag-2 10.
`COc1ccc(-c2cccc(C3CC=CC4C3C(=O)N(Cc3ccccc3)C4c3ccc4ccccc4c3)c2)cc1` (stereo not given) gave OX1R antag-1 -29 and OX1R antag-2 33.
Screening COc1ccc(Cc2cc(-c3ccc(F)cc3)n[nH]c2=O)cc1 returned OX1R antag-1 -6 and OX1R antag-2 17.
For O=C(Nc1cccnc1Oc1ncnc2cc(Cl)ccc12)c1ccc(F)cc1 the results were OX1R antag-1 -19 and OX1R antag-2 5.
Screening O=C1CSC(=S)N1/N=C/C=C/c1ccccc1 returned OX1R antag-1 -3 and OX1R antag-2 4.
CCCCCCCOc1ccc(C(=O)Nc2cccnc2)cc1 was read as OX1R antag-1 -10 and OX1R antag-2 -2.

Random excerpt: 7 entries already listed
Screening COc1ccc(Cc2cc(-c3ccc(F)cc3)n[nH]c2=O)cc1 returned OX1R antag-1 -6 and OX1R antag-2 17.
For O=C(NC(N1CCOCC1)C(Cl)(Cl)Cl)c1ccc(Br)cc1 (stereo not given) the results were OX1R antag-1 -16 and OX1R antag-2 26.
For O=C(Nc1cccnc1Oc1ncnc2cc(Cl)ccc12)c1ccc(F)cc1 the results were OX1R antag-1 -19 and OX1R antag-2 5.
Screening c1ccc2c(N3CCCC3)nc(-c3ccncc3)nc2c1 returned OX1R antag-1 -13 and OX1R antag-2 36.
Screening O=C1CSC(=S)N1/N=C/C=C/c1ccccc1 returned OX1R antag-1 -3 and OX1R antag-2 4.
For Cc1cccc(NC(=O)C(=O)NCC2CCCN2S(=O)(=O)c2ccccc2)c1 (stereo not given) the results were OX1R antag-1 -24 and OX1R antag-2 8.
Screening O=C(/C=C/c1ccc2ccccc2n1)c1cc(Cl)ccc1O returned OX1R antag-1 -11 and OX1R antag-2 -2.

(continued)
COc1ccc(/C=N/N2CCOCC2)cc1COc1ccc(Cl)cc1 was read as OX1R antag-1 -31 and OX1R antag-2 12.
Screening Cc1nc(N)nc(SCc2ccc([N+](=O)[O-])cc2)c1N returned OX1R antag-1 -7 and OX1R antag-2 10.
For Cc1nc2ccccn2c1C(=O)NNS(=O)(=O)c1ccc(Cl)cc1 the results were OX1R antag-1 -15 and OX1R antag-2 7.
CC(OC(=O)CCCSc1nc2ccccc2s1)C(=O)NC(N)=O (stereo not given) was read as OX1R antag-1 0 and OX1R antag-2 11.
`O=C(N/N=C\c1ccncc1)c1ccccc1O` gave OX1R antag-1 13 and OX1R antag-2 8.
`Cc1cc(Cl)c(S(=O)(=O)NC(C)C)cc1OCC(N)=O` gave OX1R antag-1 -1 and OX1R antag-2 26.
CNC(=O)C1CC(=O)N(Cc2ccccc2)C(=Nc2ccc(OC)cc2)S1 (stereo not given) was read as OX1R antag-1 -11 and OX1R antag-2 4.
CN(C)CCCNC(=S)N1CCN(c2nc(-c3ccccc3)cs2)CC1 was read as OX1R antag-1 -7 and OX1R antag-2 3.
`CCN(CC(=O)NCc1ccc(F)cc1)C(=O)/C=C/c1ccc(S(=O)(=O)N(CC)CC)cc1` gave OX1R antag-1 -21 and OX1R antag-2 16.
Screening Cc1occc1C(=O)Nc1ccc2ccccc2c1 returned OX1R antag-1 -37 and OX1R antag-2 39.
CC(C)(C)CC(=O)Nc1cc2c3c(c1)CCC(=O)N3CCC2 was read as OX1R antag-1 -33 and OX1R antag-2 12.
For CCOc1ccccc1N(CC(=O)NCC1CCCO1)C(=O)CCC(=O)Nc1cc(C)on1 (stereo not given) the results were OX1R antag-1 6 and OX1R antag-2 12.
COc1ccc(NC(=O)c2n[nH]c(=O)c3ccccc23)cc1S(=O)(=O)N1CCCCC1 was read as OX1R antag-1 -26 and OX1R antag-2 14.
Screening CC(C)C(=O)Nc1nnc(SCC(=O)Nc2ccc3c(c2)OCCO3)s1 returned OX1R antag-1 -22 and OX1R antag-2 18.
Screening Cc1cc(SCc2cc(=O)[nH]c3ccccc23)nc2ccccc12 returned OX1R antag-1 -32 and OX1R antag-2 38.
`CC(C)CC(NC(=O)OC(C)(C)C)C(=O)NC(C(=O)N1CCCC1C(N)=O)C(C)C` (stereo not given) gave OX1R antag-1 -20 and OX1R antag-2 14.
`O=C(Cn1cc([N+](=O)[O-])cn1)Nc1ccn(Cc2c(F)c(F)c(F)c(F)c2F)n1` gave OX1R antag-1 -14 and OX1R antag-2 7.
Screening CCc1ccc(-c2ccc3nnc(SC)n3n2)cc1 returned OX1R antag-1 -20 and OX1R antag-2 16.
Screening CN(C)CCN(C(=O)c1ccc(S(=O)(=O)N(C)C)cc1)c1nc2cc3c(cc2s1)OCCO3 returned OX1R antag-1 -5 and OX1R antag-2 7.
For COc1ccc(C(=O)C2CCCN(C(=O)C3CCOCC3)C2)c(C)c1 (stereo not given) the results were OX1R antag-1 1 and OX1R antag-2 16.
For Cc1cccc(/C=N\Nc2nnc(-c3ccccc3)c(=O)[nH]2)c1 the results were OX1R antag-1 -12 and OX1R antag-2 -2.
Screening COc1ccccc1NC(=S)NNC(=O)c1ccccc1Br returned OX1R antag-1 -17 and OX1R antag-2 22.
CC(C)[C@H](NC(=O)N1CCn2c1nc1ccccc12)C(=O)NCc1ccc(F)cc1 was read as OX1R antag-1 10 and OX1R antag-2 26.
CCOc1cccc(-c2nnc3sc(COc4ccc(Cl)cc4)nn23)c1 was read as OX1R antag-1 -12 and OX1R antag-2 19.
Screening N#Cc1cn(-c2ccccc2)nc1C(=O)c1ccccc1 returned OX1R antag-1 1 and OX1R antag-2 30.
Screening NC(Cc1ccc2nsnc2c1)C(=O)O (stereo not given) returned OX1R antag-1 -16 and OX1R antag-2 16.
Screening COc1ccccc1OCCSc1nc2ccc([N+](=O)[O-])cc2s1 returned OX1R antag-1 -21 and OX1R antag-2 28.
COCCCNC(=O)/C=C/c1ccc(OCc2c(F)cccc2Cl)cc1 was read as OX1R antag-1 4 and OX1R antag-2 14.
`COc1ccc(/C(N)=N/O)c(OC)c1` gave OX1R antag-1 -3 and OX1R antag-2 21.
Screening Cc1cccc(N(C(=O)CCC(=O)Nc2cc(C)on2)C(C(=O)NC2CCCC2)c2cccnc2)c1 (stereo not given) returned OX1R antag-1 -16 and OX1R antag-2 26.
O=C1[C@H]2[C@@H](C(=O)N1c1cccc3ccccc13)C1(C(=O)c3ccccc3C1=O)N1CCC[C@@H]21 was read as OX1R antag-1 -28 and OX1R antag-2 18.
Screening COc1ccc(C(=O)Cn2c(NCCO)nc3ccccc32)cc1OC returned OX1R antag-1 -1 and OX1R antag-2 -1.
`O=C(CC(c1ccccc1)c1cc(Br)ccc1O)N1CCCC1` (stereo not given) gave OX1R antag-1 -25 and OX1R antag-2 4.
Screening CCOC(=O)c1[nH]c2ccc(Br)cc2c1NC(=O)CCN1CCC(C(=O)OCC)CC1 returned OX1R antag-1 -25 and OX1R antag-2 41.
`Nc1cc(N)nc(SCc2ccccc2)n1` gave OX1R antag-1 -10 and OX1R antag-2 11.
For Cc1onc(-c2ccccc2)c1C(=O)NC(=S)NNC(=O)c1ccc(O)cc1 the results were OX1R antag-1 -31 and OX1R antag-2 2.
For CCOc1ccc(N(CC(=O)NCc2ccccc2)S(=O)(=O)c2ccc(C)cc2)cc1 the results were OX1R antag-1 -36 and OX1R antag-2 11.
CCCCOc1ccc(N(CC(=O)NC2CCCCC2)C(=O)c2snc(C(N)=O)c2N)cc1 was read as OX1R antag-1 7 and OX1R antag-2 10.
Screening COc1c(CC=C(C)C)c(O)cc2oc(=O)c3c4ccc(O)cc4oc3c12 returned OX1R antag-1 20 and OX1R antag-2 28.
For Nc1c(C(=O)C2CC2)sc2nc(-c3cccs3)cc(C(F)(F)F)c12 the results were OX1R antag-1 14 and OX1R antag-2 28.
For COc1ccc(-n2c(Cc3cc(=O)[nH]c(=O)[nH]3)nnc2SCC(=O)N2CCCC2)cc1 the results were OX1R antag-1 1 and OX1R antag-2 10.
For O=C(COC(=O)c1cccnc1Nc1ccccc1F)NC1CC1 the results were OX1R antag-1 0 and OX1R antag-2 12.
`NC(=O)c1ccccc1NC(=O)NC1CCCCC1` gave OX1R antag-1 -1 and OX1R antag-2 2.
For CSc1nc2[nH]ncc2c(=O)[nH]1 the results were OX1R antag-1 -3 and OX1R antag-2 7.
Screening Cc1cc(C)n(C(=O)c2ccc([N+](=O)[O-])cc2N)n1 returned OX1R antag-1 -11 and OX1R antag-2 41.
COc1cc2[nH]c3c(c2cc1OC)CCN1CCCC[C@@H]31 was read as OX1R antag-1 3 and OX1R antag-2 18.
CNC(=O)C12CC3CC(C1)CC(c1ccc(C)cc1)(C3)C2 was read as OX1R antag-1 -7 and OX1R antag-2 0.
Cn1nc(C(F)(F)F)c(/C=N/OC(=O)c2ccccc2Cl)c1SCc1ccc(Cl)cc1 was read as OX1R antag-1 -22 and OX1R antag-2 4.
For O=C1c2ccccc2C(=O)N1OCc1ccccc1 the results were OX1R antag-1 -2 and OX1R antag-2 11.
For O=C(Nc1ccccc1N1CCN(c2ccccc2)CC1)c1ccccc1F the results were OX1R antag-1 -45 and OX1R antag-2 10.
For Cc1ccccc1-n1nc(C)c2cc(C(=O)N3CCOCC3)sc21 the results were OX1R antag-1 -12 and OX1R antag-2 9.
For COC(=O)COC(=O)c1ccccc1NC(=O)c1ccccc1 the results were OX1R antag-1 -54 and OX1R antag-2 27.
`CN1CCN(S(=O)(=O)c2ccc(NC(=O)Cc3ccc([N+](=O)[O-])cc3)cc2)CC1` gave OX1R antag-1 -13 and OX1R antag-2 15.
Screening CCCCN(CC)CCCNC(=O)c1cc2c(=O)n(C)c3ccccc3c2n1C returned OX1R antag-1 -13 and OX1R antag-2 10.
COc1cccc(NC(=O)C2CC2)c1 was read as OX1R antag-1 -4 and OX1R antag-2 5.
`Cn1cnnc1Sc1ccc(C(F)(F)F)cc1[N+](=O)[O-]` gave OX1R antag-1 -23 and OX1R antag-2 35.
Screening Cn1c(=O)c2c(SCc3ccccn3)nc(CC(C)(C)C)nc2n(C)c1=O returned OX1R antag-1 -46 and OX1R antag-2 4.
Screening COCCN(CC(=O)Nc1ccc(F)cc1)S(=O)(=O)c1ccc(S(=O)(=O)N2CCCC2)cc1 returned OX1R antag-1 -23 and OX1R antag-2 7.

Among those listed so far, 2 contain a cyano group.
Screening CCCCCCCCNC(=O)/C(C#N)=C/c1ccc2c(c1)OCCO2 returned OX1R antag-1 -16 and OX1R antag-2 8.
Screening N#Cc1cn(-c2ccccc2)nc1C(=O)c1ccccc1 returned OX1R antag-1 1 and OX1R antag-2 30.
